Assay outcomes as filed in PubChem.
LANA-H2A inh: blocks KSHV LANA binding to histone H2A/H2B; Q9QR71; AID 2629; 0.6% of 320,000 active; cell-free LANA-H2A/H2B peptide, fluorescence polarization; inhibition, % (no concentration beside the values); in the data active = inhibition mostly above about 10%, no sharp cut-off; inactive = mostly below about 6.7%;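 also: stock transfer was 7.5 nL into about 10 µL; 0% = median of vehicle wells and 100% = median of positive control wells; one replicate is shown; the record names a cut of 25% in any replicate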
Vif TR-FRET: HIV-1 Vif–A3G interaction blockers – biochemical, TR-FRET, GST-Vif 1-94, biotin-A3G peptide, dose response retest, primary screen (AID 1117319). 0.57% of 260,000 active. inhibition, %, or IC50 in µM where a hit was titrated. TR-FRET GST-Vif / biotin-A3G peptide binding; higher % means a stronger effect; test concentration not given here; strong numbers were not always called active;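 active = above the screen mean plus three standard deviations and confirmed in dose response; inconclusive = results disagree or hit not tested in dose response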;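 also: Vif residues 1-94 fused to GST binding biotinylated APOBEC3G peptide 110-148; 0% = full assay without inhibitor and 100% = GST in place of GST-Vif; retest series ran down from 100 µM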
MLL AF4-AF9 inh: inhibitors of human MLL-AF4/AF9 interaction. P42568. AlphaScreen, biotin-AF4 peptide binding to FLAG-AF9. inhibition, % at 10 µM. 0.47% of 350,000 active;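 active = every replicate reaching a set inhibition limit, whatever the replicate mean, cut at about 25% in these data; inconclusive = mean inhibition reaches that limit but some replicates miss it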;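 also: 0% = plate neutral control median and 100% = total signal loss; the record names both 10 and 1 µM as test concentration; the first replicate is given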
Target sequence (P42568 whole entry, looked up): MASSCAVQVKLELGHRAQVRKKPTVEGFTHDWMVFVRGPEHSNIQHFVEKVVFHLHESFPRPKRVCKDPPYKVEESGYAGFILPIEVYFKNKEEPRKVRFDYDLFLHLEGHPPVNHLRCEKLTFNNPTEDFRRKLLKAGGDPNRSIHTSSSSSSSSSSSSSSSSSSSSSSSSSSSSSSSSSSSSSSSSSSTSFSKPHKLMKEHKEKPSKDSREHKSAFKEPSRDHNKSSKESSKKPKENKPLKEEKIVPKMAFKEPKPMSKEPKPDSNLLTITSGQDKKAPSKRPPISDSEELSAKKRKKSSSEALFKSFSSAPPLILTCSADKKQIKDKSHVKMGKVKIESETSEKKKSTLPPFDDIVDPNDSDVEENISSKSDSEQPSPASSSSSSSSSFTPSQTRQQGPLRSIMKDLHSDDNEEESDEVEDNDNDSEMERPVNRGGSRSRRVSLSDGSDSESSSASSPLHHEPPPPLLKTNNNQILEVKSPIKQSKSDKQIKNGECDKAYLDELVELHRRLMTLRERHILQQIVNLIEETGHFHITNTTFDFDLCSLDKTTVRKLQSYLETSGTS
RanGTP-Imp inh: disruptors of Ran-importin-beta complex formation – biochemical, FRET, CFP-Ran, YFP-importin-beta, homogeneous, primary screen; cell-free CFP-Ran/YFP-importin-beta FRET ratio; inhibition, % (concentration not given with the values); 1.1% of 300,000 active; AID 2216;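 active = most replicates above 15%; inconclusive = exactly half above 15%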;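 also: 0% = DMSO wells and 100% = Ran loaded with GDP instead of GTP; wells of about 40 µL received 100 nL stock; the first replicate is given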
Calb FLC: C. albicans growth modulation with fluconazole | C. albicans CaCi-2 (fluconazole-resistant clinical isolate) + fluconazole, Alamar Blue growth, 48 h | 0.57% of 300,000 active | growth inhibition, % (concentration not given with the values);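 active = most replicates above 75%; inconclusive = exactly half above 75%; inactive = most below 75%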;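 also: all wells also contain fluconazole at 8 µg/ml as a sub-toxic cotreatment; 0% = median of DMSO wells and 100% = median of geldanamycin control wells; wells of about 8 µL received 7.5 nL stock; the first replicate is given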
Bfl-1 A1 inh: inhibitors of the anti-apoptotic protein A1, read as caspase activation; AID 2462; 0.066% of 330,000 active; caspase activation, % (no concentration beside the values); MEF A1-2A-BIM cells, Caspase-Glo 3/7 luminescence, 3 h; percent of clofoctol response, vehicle zero;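 active = over half of replicate activation scores above 10%, or exactly half above 10 with the replicate mean above 10; inconclusive = replicate mean below 10 yet half the replicates above 10; inactive = over half of replicates below 10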;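 also: wells of about 30 µL received 50 nL stock; many hits fall short of the cut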
Beta apoptosis: beta cell apoptosis inhibition | protection from apoptosis, % (test concentration not listed) | 0.8% of 300,000 active | AID 435005 | INS-1E cytokine-induced death, ATP luminescence, 48 h; percent of positive-control rescue, neutral wells zero;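 active = all replicates at 75% or more, or half of them and the mean; inconclusive = half reach 75% but not the mean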;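 also: 0% = cytokine-treated negative control wells and 100% = positive control rescue; higher means more ATP so stronger rescue from cytokine killing; wells of about 40 µL received 100 nL stock; the first replicate is given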
T cruzi inh: blocks replication of Trypanosoma cruzi; AID 1885; 1.4% of 300,000 active; T. cruzi beta-gal in NIH3T3, luminescence, 90 h; inhibition, % (concentration not given with the values);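 active = mean inhibition across valid replicates above about 55%, limit read from the data; inconclusive = mean below that limit but half or more replicates reach it; inactive = mean below it, under half of replicates reach it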;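 also: signal also drops with host cell toxicity which is not excluded here; 0% = plate median of DMSO wells and 100% = zero luminescence signal; higher percent means less beta-gal luminescence so fewer parasites; stock transfer was 50 nL into about 50 µL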
An asterisk follows results filed as active; i = inactive; ? = inconclusive; . = no result given; & = joins results of further samples.

SMILES	LANA-H2A inh	Vif TR-FRET	MLL AF4-AF9 inh	RanGTP-Imp inh	Calb FLC	Bfl-1 A1 inh	Beta apoptosis	T cruzi inh
CSc1ccc(/C=C(/NC(=O)c2ccco2)C(=O)NCc2ccco2)cc1	-20	.	0.2	2.8	-10	0.2	-3	-2
COc1ccc(Cl)cc1NC(=S)N(CCN1CCOCC1)C1CCN(C(C)=O)CC1	4.5	-4%	15	4.0	2	0.7	0	4
COc1ccc(NC(=O)CSc2ncn(-c3ccccc3)n2)cc1Cl	5.0	-3%	.	?	11	-0.8	3	-9
CNC(=O)c1csc(-c2cccs2)n1	-1.5	-1%	-2.9	-2.5	-1	-2.0	-3	-8
Cc1cc(NC(=O)CSc2nnc(C3CC3)n2Cc2ccccc2)no1	0.5	5%	.	2.5	-3	-0.7	1	2
CNC(=S)NNC(=O)c1sc2cc(C(F)(F)F)cnc2c1-c1ccccn1	1.8	-5%	-7.1	2.8	5	0.2	-3	-7
O=c1ccc(/C=C/c2ccccc2)nn1Cc1ccc(F)cc1	-1.1	9%	0.6	-3.9	-4	-1.2	0	-18
O=c1[nH]c(C2CCCN(S(=O)(=O)Cc3ccccc3)C2)nc2c1nnn2Cc1cccc(Cl)c1 (stereo not drawn)	7.4	-4%	-6.8	-1.3	-8	-0.8	6	25
CC1CCCC(NC(=O)CN(C)CC(=O)Nc2cccc(F)c2)C1C (stereo not drawn)	-0.7	.	0.4	.	.	-0.3	-6	.
CC(C)COc1ccc(CNC(=S)N/N=C/c2ccc([N+](=O)[O-])cc2)cc1	1.1	6%	.	-0.6	-5	-0.1	1	24
CCOc1ccc(-c2nc(CSc3nnc(N)s3)cs2)cc1OC	.	-8%	.	1.8	13	-0.2	-4	-14
Clc1ccc(N=NN2CCOCC2)cc1	-5.3	.	0.4	5.4	0	-1.5	-1	10
COC(=O)Nc1c(-c2ccccc2)nc2ccccn12	5.6	0%	.	-4.0	-20	0.6	-6	-5
COc1ccccc1N(CC(=O)N/N=C(\C)c1ccc(F)cc1)S(=O)(=O)c1ccccc1	2.7	6%	0.7	.	.	1.6	6	.
O=C(O)CCC(=O)Nc1cccc(C(=O)c2ccccc2)c1	0.9	?	4.8	-4.2	-2	0.0	-6	-14
CCOC(=O)CNC(=O)N1CCCC(CNS(=O)(=O)Cc2ccccc2)C1 (stereo not drawn)	-2.4	-2%	-1.2	?	10	4.0	-5	-10
CCOC(=O)c1c(NC(=O)COC)sc2c1CCCC2	2.0	-8%	.	?	-8	-0.2	-4	12
COCCn1c(SCC(=O)Nc2ccccc2OC)nnc1-c1ccco1	1.6	-7%	1.2	1.3	-8	-0.3	1	10
CCOc1ccc(C(=O)NC2CCN(CC(=O)NCc3cccs3)CC2)cc1	1.9	-14%	-2.0	0.9	7	0.5	-4	-4
COc1ccc(-c2nc(NC(C)=O)sc2-c2ccc(OC)cc2)cc1	-12	-461%	-0.6	2.7	-4	0.9	-10	40
O=C(OCCN1CCCCC1)c1ccc(Cl)cc1	-2.3	2%	.	-0.4	-8	0.2	-1	-3
COC(=O)C(Cc1ccccc1)NC(=O)CC(C)CC(=O)Nc1ccc(C)cc1 (stereo not drawn)	-1.1	.	-3.9	-2.8	13	-0.2	.	-15
O=C(CSCc1ccccc1)Nc1nccs1	3.2	4%	.	1.9	-3	0.4	-3	-17
COCC(C)Nc1ncnc2c1cnn2-c1ccc(Cl)cc1 (stereo not drawn)	2.1	2%&2%	.	-0.2	2	1.6	0	-7
c1ccc(C2=Nc3cccnc3C(c3ccccc3)=NN2)cc1	1.0	0%	2.7	5.5	-4	-0.9	1	4
COCCNC(=O)C1CCN(S(=O)(=O)c2c(C)noc2/C=C/c2cccs2)CC1	3.2	?	8.8	1.9	11	1.0	5	6
COc1ccc(CCNC(=O)c2cc3sccc3n2C)cc1OC	1.8	2%	-12	-2.9	-18	0.3	-1	-11
C=CC[C@@H](CC(=O)N(CCO)Cc1ccccc1)C(=O)N[C@H](C)COC(=O)[C@@H](CC=C)Cc1ccc(F)cc1	-3.2	.	-0.3	.	.	0.9	2	.
COc1cccc(NC(=O)Cn2c(=O)n(C)c(=O)c3sc4c(c32)COC(C)(C)C4)c1	4.1	-7%	12	1.3	6	1.9	5	6
COc1ccc(S(=O)(=O)N(C)CC(=O)NCCN2CCOCC2)cc1	-0.2	.	0.1	1.4	-6	0.2	-1	-3
CCOC(=O)CSc1nc2c(sc(=S)n2Cc2ccco2)c(=O)n1-c1ccccc1	-1.5	-2%	.	-3.6	-3	-0.6	-2	25
COc1ccc(C(=O)N2N=C(c3ccccc3)CC2(O)C(F)(F)F)cc1 (stereo not drawn)	.	?	-1.6	3.2	-4	.	.	-11
CCOC(=O)c1cccc(NC(=O)CCNS(=O)(=O)c2cc(Br)cnc2N)c1	-3.7	.	-0.9	0.0	-10	-1.1	-1	1
COC(=O)c1ccccc1NC(=O)C1COc2ccccc2O1 (stereo not drawn)	0.7	-2%	.	10	1	-1.0	1	9
CCN(C[C@H]1N[C@@](CC)(C(=O)OC)[C@H]2C(=O)N(Cc3ccccc3)C(=O)[C@@H]12)S(=O)(=O)c1ccc(F)cc1	i	-4%	2.2	.	.	-0.3	-8	.
O=C(Nc1ccccn1)C1CCN(C(=O)c2ccc(F)cc2)CC1	.	.	-0.9	-3.2	1	0.3	-9	-1
C/C(CS(=O)(=O)c1ccccc1)=N\O	2.6	1%	-1.9	1.1	18	1.4	-4	-7
Cc1ccc(C(C(=O)NC(C)(C)C)N(Cc2ccc3c(c2)OCO3)C(=O)c2ccc(CN3CCOCC3)o2)o1 (stereo not drawn)	-0.3	-7%	0.8	1.9	34	-0.7	-3	4
Cc1cc(C)c(OCC(=O)OCC(=O)NNC(=O)c2ccccc2F)c(C)c1	-3.6	-10%	-3.3	.	.	0.3	2	.
N#C/C(=C\c1ccccc1)c1n[nH]c(Cn2cncn2)n1	-3.7	3%	.	1.7	-2	1.0	-4	-6
O=C(Nc1ccc(N=Nc2ccccc2)c(NC(=O)C2CCCO2)c1)C1CCCO1 (stereo not drawn)	9.0	18%	.	2.8	?	-1.1	-2	4
CO/C=C/C#CC1(O)CCN(C)CC1	-1.4	-1%	.	0.3	-9	0.6	1	-6
CCOc1cc(/C=C2/C(=O)ON=C2C)cc(Br)c1O	-5.0	-1%	-4.1	-0.2	-13	0.1	.	-12
COc1ccc(C)cc1S(=O)(=O)N(C)CC(=O)NCc1ccccn1	-2.3	.	1.4	-3.2	-3	-0.4	.	-5
O=c1ccc(OCCOc2ccccc2)nn1-c1ccccc1	2.6	-4%	4.7	?	-13	0.3	-2	0
Cc1cccc(OCCCCN2CCNCC2)c1	0.6	.	1.4	-0.9	-6	0.0	.	21
COc1ccc(-c2c([C@H]3[C@H]4C=CC[C@@H](C)[C@@H]4C(=O)N3Cc3ccccc3)ccc3ccccc23)cc1OC	-5.6	12%	3.2	6.2	-6	0.5	33	40
CCn1cc(Br)c(C(=O)NC(=S)Nc2ccc(C(=O)OC)cc2)n1	0.1	4%	.	0.9	-2	-0.2	-4	-1
CC(C)(C)NC(=O)c1cc2c(ccc3ccccc32)oc1=O	4.4	-7%	2.5	6.3	-3	-0.2	3	-3
Cc1ccccc1CSc1nnc(Cn2c(=O)sc3ccccc32)n1C	-3.7	32%	0.7	-0.7	-2	-0.2	1	11
O=[N+]([O-])c1ccc(CSc2nnc(SCc3ccc(Cl)cc3)s2)cc1	-0.3	.	-1.4	-3.2	-24	0.6	5	34
Nn1c(SCC(=O)Nc2c(F)cc(F)cc2Br)nnc1C1CCCCC1	-1.6	.	-2.2	-2.2	.	1.2	-2	11
O=C1NC[C@@H](c2ccccc2)OC(=O)[C@@H](Cc2ccc(F)cc2)C/C=C\C[C@@H]1CC(=O)N(CCO)Cc1ccccc1	4.0	.	-2.2	.	.	0.5	5	.
COCCn1c(N2CCN(c3ccc(OC)cc3)CC2)nc2c1c(=O)[nH]c(=O)n2C	-0.7	64%	.	-1.9	-2	-0.8	4	-16
COc1ccc(OCC(=O)Nc2ccc(NC(=O)c3ccco3)c(C)c2)cc1	.	-3%	0.3	-1.4	-1	.	.	-8
Cc1cc(C(C)(C)C)cc(C)c1CCNC(=O)c1ccc[n+]([O-])c1	-0.9	-1%	-10	2.1	-17	0.0	-1	-9
COc1ccc(C(=O)NC2CCN(C(=O)NCc3ccccc3)CC2)cc1	5.0	.	-2.3	-1.1	-12	0.0	1	-9
Cc1c(NC(=O)c2ccccc2N(C)S(=O)(=O)c2ccccc2)c(=O)n(-c2ccccc2)n1C	2.7	3%	.	-4.6	-14	-0.9	.	-17
CCOc1ccc(N(CC(=O)N2CCN(c3ccccc3F)CC2)S(=O)(=O)c2c(C)noc2C)cc1	-12	-2%	-1.8	1.3	-5	1.5	1	11
O=C(NC1CCCC1)C(c1cccs1)N(C(=O)c1ccco1)c1ccc2c(c1)OCO2 (stereo not drawn)	-3.4	7%	.	-0.7	-97	0.8	-4	9

(list continues)
SMILES	LANA-H2A inh	Vif TR-FRET	MLL AF4-AF9 inh	RanGTP-Imp inh	Calb FLC	Bfl-1 A1 inh	Beta apoptosis	T cruzi inh
COC(=O)c1ccc(C)c(NC(=O)Cc2coc3cc(OC)ccc23)c1	3.7	1%	-35	2.9	-13	0.2	1	-10
CCc1ccc2c(c1)C(c1ccc([N+](=O)[O-])cc1)=NNC(c1ccccc1)=N2	-1.5	26%	.	1.6	-24	2.1	-2	-4
Cc1ccc(F)cc1CNC(=O)C1CCC(=O)N(CC2CCCCC2)C1 (stereo not drawn)	.	3%	0.3	4.7	12	.	.	2
CCOC(=O)[C@H]1[C@H]2COc3ccc(C)cc3[C@@H]2N2C(=O)c3ccc(F)cc3NC(=O)[C@@]12C	-2.9	.	-39	.	.	0.3	0	.
Cc1cc(SCC(=O)OC(C)C(=O)N(C)c2ccccc2)nc2ccccc12 (stereo not drawn)	-4.6	-8%	-0.3	-2.7	-4	-1.1	.	9
CCOC(=O)N1CCN(C(=O)Nc2ccc3nc(-c4ccccn4)c(-c4ccccn4)nc3c2)CC1	5.9	15%&-2%	.	6.0	9	0.2	1	-5

An excerpt of these results, with two lines to a compound.
Below each compound: LANA-H2A inh | Vif TR-FRET | MLL AF4-AF9 inh | RanGTP-Imp inh | Calb FLC | Bfl-1 A1 inh | Beta apoptosis | T cruzi inh
> CCOC(=O)[C@H]1[C@H]2COc3ccc(C)cc3[C@@H]2N2C(=O)c3ccc(F)cc3NC(=O)[C@@]12C
 : -2.9 | . | -39 | . | . | 0.3 | 0 | .
> COC(=O)c1ccc(C)c(NC(=O)Cc2coc3cc(OC)ccc23)c1
 : 3.7 | 1% | -35 | 2.9 | -13 | 0.2 | 1 | -10
> CCc1ccc2c(c1)C(c1ccc([N+](=O)[O-])cc1)=NNC(c1ccccc1)=N2
 : -1.5 | 26% | . | 1.6 | -24 | 2.1 | -2 | -4
> Cc1cc(SCC(=O)OC(C)C(=O)N(C)c2ccccc2)nc2ccccc12 (stereo not drawn)
 : -4.6 | -8% | -0.3 | -2.7 | -4 | -1.1 | . | 9
